High-throughput results: PubChem BioAssay, several laboratories
CBX7 AlphaScr – inhibitors of human CBX7 binding to H3K27me3 peptide. 66,000 compounds, 1.1% hits. AlphaScreen His6-CBX7 / biotin-H3K27me3 peptide binding; active compounds read low. O95931. normalised signal (fraction of DMSO) (no concentration beside the values); in the data active = normalised signal below about 0.5;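 also: 100 nL library stock added to about 20 µL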
Target sequence (O95931 whole entry, looked up): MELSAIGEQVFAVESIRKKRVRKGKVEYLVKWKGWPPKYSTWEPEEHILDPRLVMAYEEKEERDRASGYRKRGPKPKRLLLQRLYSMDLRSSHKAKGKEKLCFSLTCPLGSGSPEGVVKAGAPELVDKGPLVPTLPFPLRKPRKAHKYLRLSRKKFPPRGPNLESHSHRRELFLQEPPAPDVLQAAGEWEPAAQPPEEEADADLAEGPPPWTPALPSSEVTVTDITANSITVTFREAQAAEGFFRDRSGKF
CBX7 AlphaScr z-score – second read-out of CBX7 AlphaScr, no call of its own (marks repeat the call); z-score; measured here: z-score of CBX7 signal; some inactives read as strong as hits; reference of the scale not given here;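 same signal on another scale; lower means less binding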
The depositor's hits bear a star; & = joins results of further samples. Some of the compounds tested; rates above refer to the full screens.

SMILES	CBX7 AlphaScr	CBX7 AlphaScr z-score
Cc1cccc(N2C(=O)CC(N3CCN(c4ccccn4)CC3)C2=O)c1 (configuration not stated)	0.94&0.924	-0.926&-0.983
CCOc1nnc(-c2ccc(C)cc2)c2ccccc12	0.802	-0.781
COc1cccc(-c2nn(C)c3sc(C(=O)NCCc4cccc(C)c4)cc23)c1	1.13	3.71
Cc1ccc(Nc2cc(C)nc3nc(C)nn23)c(C)c1	1.2	2.05
CCC1=Nc2cc(C(=O)NCC(OC)OC)ccc2Sc2ccc(Br)cc21	0.829	-8.1
O=C(Nc1c(Cl)cccc1Cl)c1cc(-c2ccc(F)cc2)on1	1.04	1.66
Cc1cc(C)cc(-n2ccnc2SCC(=O)Nc2ccccc2)c1	0.975	-0.0253
Cc1ccccc1OCC(=O)Nc1ccc(Cl)c(-c2nc3cc(Cl)ccc3o2)c1	1	0.0713
COc1ccc(N(CC(=O)Nc2ccc3c(c2)OCCO3)S(=O)(=O)c2cccnc2)cc1	0.971	-0.457
COc1ccc(Cl)cc1NC1c2ccccc2C(=O)N1c1cccnc1 (configuration not stated)	0.911	-1.6
O=C1C(c2ccc(F)cc2)N(CCc2ccccc2)C(=O)CN1C1CCCCC1 (configuration not stated)	0.927	-0.151
Cc1cc2nc(C(F)(F)F)cc(C(F)(F)F)n2n1	1.02	0.679
Cc1ccc(C)c(Nc2ncnc3ccccc23)c1	0.82	-2.14
CCOc1cc2[nH]c(=O)n(CCCC(=O)NCCCN(CC)c3ccccc3)c(=O)c2cc1OCC	1	0.0572
Cc1nc(-n2cccc2)sc1C(=O)NCc1ccccc1Cl	0.958	-1.2
COc1ccc(OC)c(NC(=O)CCc2nc(-c3ccccc3F)no2)c1	1.02	0.5
Cc1cccc(-n2c(C)nc3cc(C(=O)NCCC4=CCCCC4)ccc32)c1	0.722	-4.83
O=C(COCc1cc(-c2ccc(F)cc2)on1)Nc1cccc(Cl)c1	1.13	1.38
COc1ccc(C(=O)Nc2c(C(=O)Nc3cccc(F)c3)oc3ccccc23)cc1	1	0.0412
COc1ccc(-n2c(-c3ccccc3)cc3c2CC(C)(C)CC3=O)cc1	0.952	-0.625

Quoted from the results shown (seven entries):
SMILES	CBX7 AlphaScr	CBX7 AlphaScr z-score
O=C1C(c2ccc(F)cc2)N(CCc2ccccc2)C(=O)CN1C1CCCCC1 (configuration not stated)	0.927	-0.151
Cc1cc2nc(C(F)(F)F)cc(C(F)(F)F)n2n1	1.02	0.679
Cc1ccc(C)c(Nc2ncnc3ccccc23)c1	0.82	-2.14
CCOc1cc2[nH]c(=O)n(CCCC(=O)NCCCN(CC)c3ccccc3)c(=O)c2cc1OCC	1	0.0572
Cc1nc(-n2cccc2)sc1C(=O)NCc1ccccc1Cl	0.958	-1.2
COc1ccc(OC)c(NC(=O)CCc2nc(-c3ccccc3F)no2)c1	1.02	0.5
Cc1cccc(-n2c(C)nc3cc(C(=O)NCCC4=CCCCC4)ccc32)c1	0.722	-4.83

Continued.
SMILES	CBX7 AlphaScr	CBX7 AlphaScr z-score
Fc1ccc(-c2csc(N3CCOCC3)n2)cc1	0.922&0.891	-2.29&-1.38
O=C(O)c1ccc(-c2nc(-c3cccc(Cl)c3)c(-c3ccccc3)[nH]2)cc1	0.715	-0.283
CCOC(=O)c1c(NC(=O)c2ccc(C)cc2)sc2c1CCCCC2	1.61	20
Cc1ccc2nc(-c3ccccc3)c(Nc3ccc4c(c3)OCCO4)n2c1	1.06	0.468
COc1ccc(-c2nc(CN3CCC(C(=O)NC4CCCCCC4)CC3)c(C)o2)cc1	1.13	1.81
O=C(CSc1nnnn1-c1ccc(C(=O)O)cc1)Nc1ccccc1	1.11	1.01
CCCCOc1ccc(N2CC(C(=O)NCCc3ccc(OC)c(OC)c3)CC2=O)cc1 (configuration not stated)	1.01	0.00746
Cc1nn(-c2ccc(F)cc2F)c2c1-c1nc(N3CCCC3)ncc1CC2	0.893	-1.71
COc1ccc(-c2cn3c(C)c(C(=O)NCc4ccccc4)sc3n2)cc1	0.906	-1.81
Cc1nc(Oc2ccc(Cl)cc2)c(C(N)=O)c(C)c1Cl	1.01&0.979	0.377&-0.232
Cc1ccc(NC(=O)C2CCN(S(=O)(=O)c3cccc4cccnc34)CC2)cc1F	0.947	-0.681
Cc1ccccc1-c1nc(C(=O)N2CCOCC2)c(C)o1	1.05	0.127
CCOC(=O)C1CCN(c2c(NCCc3ccc(C)cc3)c(=O)c2=O)CC1	1.1	0.939
CCN(CC)c1ccc(NC(=O)CCc2c(C)nc3c(-c4ccccc4)c(C)nn3c2C)c(C)c1	1.1	1.08
O=C(c1ccc2c(c1)OCO2)c1cn(Cc2ccccc2)c2cc3c(cc2c1=O)OCO3	0.753	-0.87
CCOc1ccc(CC(=O)NCCc2cc3ccc(C)c(C)c3[nH]c2=O)cc1	1.01	0.0527
Cc1nc2ccccn2c1-c1csc(Nc2ccccn2)n1	0.73	-0.319
CCOC(=O)N1CCC(Nc2c(N3CCN(c4ccccc4)CC3)c(=O)c2=O)CC1	1.02	0.42
COc1ccc2nc(N3CCC(C(=O)NC(C)c4ccccc4)CC3)sc2c1 (configuration not stated)	1.05	0.77
Cc1ccc(NC(=O)c2cnn(-c3ccccc3)c2NC(=O)c2cccc(F)c2)cc1	1.02	0.617
O=S(=O)(Nc1nc2ccccc2nc1Nc1ccc(F)cc1)c1ccccc1	0.677	-9.29
COc1cc2[nH]c(=O)n(CCCC(=O)N3CCN(c4cccc(Cl)c4)CC3)c(=O)c2cc1OC	0.983	-0.431
O=C1CC(c2cc(F)ccc2F)c2cc3c(cc2N1)CCC3 (configuration not stated)	1.06	0.162
CCCCCn1c(CCNC(=O)c2ccc(OC)c(OC)c2)nc2ccccc21	0.968	-0.459
Cc1ccc(S(=O)(=O)N2C(=O)CCC2C(=O)N2CCN(c3ccccc3)CC2)cc1 (configuration not stated)	1.01	0.127
COc1ccc(CN2C(=O)c3ccccc3C2C(=O)NCCc2ccccc2)cc1 (configuration not stated)	0.965	-0.123
CC(C)(C)c1nnc(NC(=O)c2ccccc2F)s1	0.978	-0.42
c1ccc(Nc2ncc(Cc3cccc4ccccc34)s2)cc1	0.698	-0.525
Cc1onc(-c2c(Cl)cccc2Cl)c1C(=O)N(CC#N)CC#N	1.04	0.279
COC(=O)c1cn(-c2ccccc2)nc1-c1ccc(C)cc1	1.13	3.06
O=C(CCN1C(=O)COc2ccccc21)NCCC1=CCCCC1	1.02	0.431
COc1ccc(NC(=O)CSc2nnc(-c3c[nH]c4ccccc34)n2C)cc1	0.907	-1.62
O=C(CSCc1cnn(-c2ccccc2)c1-n1cccc1)NCC1CCCO1 (configuration not stated)	1.04	1.69
Cc1nn2c(C(F)(F)F)cc(-c3cccs3)nc2c1-c1ccc(Cl)cc1	0.919	-1.4
CCN(CC)C1C(=O)Nc2ccccc2N=C1c1ccccc1 (configuration not stated)	0.842	-0.683
O=C(CCc1nc2ccccc2n(Cc2ccccc2F)c1=O)NC1CCCc2ccccc21 (configuration not stated)	0.744	-2.76
Cc1cccc(-c2nc(CN3CCCCC3)c(C)o2)c1	0.966	-1.5
CC(C)(C)C(=O)Nc1ccc(C(=O)Nc2cccc(-c3nc4ccccc4[nH]3)c2)cc1	0.937	-2.23
COc1ccccc1N1CCN(Cc2cc(Br)c(O)c3ncccc23)CC1	0.0133*	-24.4*
CCOC(=O)C1CCCN(S(=O)(=O)c2cnc[nH]2)C1 (configuration not stated)	1.01	0.388
CN(Cc1ccccc1)C(=O)CCCN1C(=O)CSc2ncccc21	1	0.00762
O=C(NCCCN1CCN(Cc2ccccc2)CC1)c1cc2c(s1)-c1ccccc1OC2	1.15	3.58
CCN(CC)C(=O)c1cc2c(n(-c3ccc(C)cc3)c1=O)CC(C)(C)CC2=O	1.05	1.44
COc1cccc(-c2nn(C)c3sc(C(=O)NCCN4CCOCC4)cc23)c1	0.818	-2.34
COc1ccc(N2C(=O)c3ccccc3C2=O)cc1NC(=O)c1ccccc1	1.04	0.875
COc1cc(Nc2nc(-c3ccc(S(=O)(=O)N4CCCCC4)cc3)cs2)c(OC)cc1Cl	0.594	-4.85
Cc1ccc(Nc2nc(C(F)(F)F)c(-c3ccc(F)cc3)s2)cc1	1.09	2.19
O=C(NCc1nnc(SCC(=O)N2CCOCC2)o1)c1cccs1	1.03	1.11
CCCc1ccc(Oc2c(-c3ccc(O)c(C)c3O)n[nH]c2C)cc1	0.711	-4.48
COC(=O)c1ccc2nc(C)cc(Nc3ccc(F)cc3)c2c1	1.02	0.0233

(continued)
SMILES	CBX7 AlphaScr	CBX7 AlphaScr z-score
COc1ccccc1-c1c(C)nn2c(NCCC3=CCCCC3)cc(C)nc12	1.03	0.068
Cc1cccc(-c2nc(CN3CCCC(C(=O)NCc4ccccc4Cl)C3)c(C)o2)c1 (configuration not stated)	0.957	-1.19
COc1ccccc1NC(=O)c1nnn(Cc2ccccc2)c1N	1.15	1.13
O=C(c1n[nH]c(=O)c2ccccc12)N1CCN(c2cccc(Cl)c2)CC1	0.962	-0.236
COc1cc(OC)c(NC(=O)c2cc3c(-c4ccccc4F)nn(C)c3s2)cc1Cl	0.948	-1.02
Cc1ccccc1Nc1c(-c2cc(Br)ccc2F)nc2ccccn12	1.01	0.3
c1ccc2c(c1)CCN2c1nnc(Cc2ccncc2)c2ccccc12	1.12	3.9
CCCN(C(=O)CCc1nc(-c2ccccc2F)no1)c1ccccc1C	0.98	-0.441
Cc1cc(C)c(C#N)c(Nc2ccc(-c3ccccc3)cc2)n1	1.21	2.31
Cc1ccc(CNC(=O)CCCCCn2c(=O)c3sccc3n(Cc3cccc(C)c3)c2=O)cc1	0.946	-1.17
O=C(NC1CCN(Cc2ccccc2)CC1)c1ccc2c(=O)n(CCc3ccccc3)c(=O)[nH]c2c1	0.978	-0.537
CC(C)(O)C#Cc1ccc(C(=O)NC(c2ccccc2)c2ccccc2)cc1	0.998	-0.0295
CCOc1ccccc1Nc1cc(C)nc2ccc(C(=O)OC)cc12	1.04	1.43
CCc1ccccc1Nc1cc(C(=O)NCc2ccccn2)c2ccccc2n1	0.85	-2.3
COc1ccc(-c2cc(C(=O)NCCN3CCN(c4ccccc4)CC3)c3cc(C(C)C)ccc3n2)cc1	1.02	0.0247
Cc1ccc(-n2nc3c(c2NC(=O)C2CC2)CS(=O)(=O)C3)cc1	1.27	1.8
CCCCNc1nc(SCc2ccccc2F)nc2ccccc12	1.01	0.585
COc1ccccc1OCCSc1nc2ccccc2n1CCOc1ccccc1OC	0.94	-1.5
COc1ccc(Nc2cc(C(=O)NCCN3CCCCCC3)c3ccccc3n2)c(OC)c1	0.594	-6.21
c1ccc(-c2nc(NCc3cccnc3)c3ccccc3n2)cc1	0.891	-1.05
CCCCN(CCCC)CC(O)CN(c1ccccc1)S(=O)(=O)c1ccc(C)cc1 (configuration not stated)	1.06	0.153
CC(NC(=O)c1nnc(Cc2ccc(Cl)cc2)o1)c1ccccc1 (configuration not stated)	1.08	2.99
Cc1ccc(NS(=O)(=O)c2ccc3c(c2)CCN3C(=O)C2CC2)cc1	1.04	1.09
COc1ccc(-n2c(C)ccc2C)c(N)c1	0.95	-0.776
CCOC(=O)c1cnc2c(C)c(Cl)ccc2c1Nc1cccc(Cl)c1C	1.18	1.16
COCCCNC(=O)CNC(=O)c1nn(-c2ccc(OC)cc2)c(=O)c2ccccc12	1.13	2.7
CCn1c(=O)cc(OCC(=O)Nc2ccccc2C#N)c2ccccc21	0.959	-0.487
Cc1cc(C)c(OCC(=O)Nc2cc(-c3nc4ncccc4o3)ccc2C)c(Br)c1	1.08	0.816
CCc1ccc(NC(=O)N2CCC(N(C)C(C)C)CC2)cc1	0.886	-1.23
NC(=O)C1CCN(C(=O)CN2C(=O)COc3ccc(S(=O)(=O)N4CCOCC4)cc32)CC1	0.959	-0.635
CC(C)c1ccc(NC(=O)C(c2ccc3c(c2)OCO3)N2CCOCC2)cc1 (configuration not stated)	0.973	-0.168
O=C(Nc1ccccc1-c1nc2ccccc2[nH]1)c1cccc(Oc2ccccc2)c1	1.04	1.43
COc1ccc(OC)c(N2C(=O)CC(Cc3ccc(Cl)cc3)C2=O)c1 (configuration not stated)	0.836	-1.95
CC(C)(C)c1ccc(C(=O)Nc2c(C(=O)c3ccc(Cl)cc3)oc3ccccc23)cc1	1.37	1.64
COc1ccc(-c2cc(C(=O)Nc3c(C)nn(Cc4ccccc4)c3C)no2)cc1OC	0.77	-3.17
CCn1c(NC(=O)Nc2ccc(C)cc2C)cc2sccc21	1.05	1.62
CCCCn1c(CCNC(=O)c2ccc(F)cc2)nc2ccccc21	0.914	-1.72
FC(F)(F)c1nn2cc(-c3ccccc3)nc2s1	1.03	1.21
CC(NC(=O)c1cccnc1)C(c1cccs1)N1CCN(c2ccccc2)CC1 (configuration not stated)	0.931	-0.731
CCCCSCCCNC(=O)c1cc(Nc2ccc(OC)cc2OC)nc2ccccc12	0.866	-2.65
O=C(CSc1nnc(-c2ccc(Cl)cc2)o1)N1CCOCC1	1.35	0.813
CCOc1ccc(CSc2nnnn2-c2ccccc2F)cc1OCC	1.08	2.45
COc1ccc(C2(C)CCc3oc4ccccc4c3-c3oc(C)cc32)cc1 (configuration not stated)	1	0.107
Cc1oc(-c2cccc(Cl)c2)nc1CN1CCCC(C(=O)NC2CC2)C1 (configuration not stated)	1.04	0.484
CCOc1ccc(-c2cc(C(=O)NCCCN3CCCCCC3)c3ccccc3n2)cc1	1.2	3.67
Cc1ccc(NC(=O)COc2ccc(N3CC(C(N)=O)CC3=O)cc2)cc1C (configuration not stated)	0.995	-0.193

Compound profiles, from the list above.
CCOc1ccc(CSc2nnnn2-c2ccccc2F)cc1OCC reads CBX7 AlphaScr: 1.08; CBX7 AlphaScr z-score: 2.45
Cc1ccc(NC(=O)COc2ccc(N3CC(C(N)=O)CC3=O)cc2)cc1C (configuration not stated) reads CBX7 AlphaScr: 0.995; CBX7 AlphaScr z-score: -0.193
O=C(CSc1nnc(-c2ccc(Cl)cc2)o1)N1CCOCC1 reads CBX7 AlphaScr: 1.35; CBX7 AlphaScr z-score: 0.813
